Screens deposited in PubChem BioAssay by National Center for Advancing Translational Sciences (NCATS).
ClpP mod: qHTS Assay for Activators of ClpP; ATP-dependent Clp protease proteolytic subunit (Bacillus subtilis (strain 168)), P80244; purified B. subtilis ClpP, FRET peptide cleavage, 20 min; Potency, µM (series often up to 57.5 µM), inactives show at the highest dose activity change, negative = active; 340,000 compounds, 1.9% hits; AID 651965, 2013; active = well fitted falling curve with a large enough effect; inconclusive = small, poorly fitted or top-dose-only effect; inactive = no such curve, though single readings can be large or run the other way; also: the source files actives as falling curves though it sought activators and does not explain the sign; nearly all actives have a fitted effect of over 65% in size; many hits overshoot -100%
Target sequence (P80244 whole entry, looked up): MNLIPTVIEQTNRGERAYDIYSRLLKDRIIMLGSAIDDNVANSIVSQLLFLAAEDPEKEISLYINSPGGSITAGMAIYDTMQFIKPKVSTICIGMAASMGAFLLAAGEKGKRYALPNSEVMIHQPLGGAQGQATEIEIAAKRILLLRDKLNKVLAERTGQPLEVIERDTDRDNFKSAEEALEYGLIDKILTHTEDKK
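ClpP 10 microg/mL final, pH 8 Tris/KCl buffer with BSA, glycerol, Tween-20; compound pinned in; FRET-FV substrate; RT 20 min; Ex320/Em430; ΔFRET vs ADEP 5.8 microM, DMSO, no enzyme.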
* marks the source's active call; other numbers are inactive results; ? = inconclusive. Potency is read from the fitted curve at half-maximal effect. Some of the compounds tested. The share of hits here may be higher or lower than overall.

SMILES	ClpP mod
CCCCCCCCCCCC[n+]1ccc(/C=C/c2c[nH]c3ccccc23)c2ccccc21	-3.4%
Fc1ccc(-c2ccc(CNCCSc3nnnn3-c3ccccc3)o2)cc1	-4.4%
CCc1ccc(CNC(=O)C2CCCN(S(=O)(=O)c3ccc4c(ccn4C)c3)C2)cc1 (centres undefined)	-24%
CC(=O)Nc1ccc(NC(=O)c2cc(-c3ccc4c(c3)OCCO4)on2)cc1	16%
CCOC(=O)c1cc2c(=O)n3ccccc3nc2n(CC2CCCO2)c1=NC(=O)c1ccccc1F (centres undefined)	4.1%
Cc1c(Cl)cccc1NC(=O)Cn1c(=O)nc(-c2ccccc2)c2ccccc21	41%
Cc1nn(C)c2c1c(-c1ccccc1)cc(=O)n2CC(=O)NC(C)C	4.8%
CC(C)(C)C1CCc2nc(NC(=O)Cc3ccc(Cl)cc3)sc2C1 (centres undefined)	-2.4%
CCN(CC)C(=O)Cn1cc(SCC(=O)Nc2ccc(C)cc2)c2ccccc21	0.7%
Cc1nc2nncn2c(Nc2ccc(F)cc2)c1C	-0.4%
CCOC(=O)Cn1c(=O)n(CC2CCCO2)c2nc(-c3cc(OC)ccc3OC)nc(C(N)=O)c21 (centres undefined)	-1.2%
CCOc1ccc(N(C(=O)Cn2nnc3ccccc32)C(C(=O)NCc2ccccc2)c2ccc(OC)cc2)cc1 (centres undefined)	2.9%
Cc1cc(=O)oc2cc(OCC(=O)Nc3c(C(C)C)cccc3C(C)C)ccc12	4.5%
CCCN(C)CCCOc1cc2nc(N3CCCN(C)CC3)nc(NC3CCN(C)CC3)c2cc1OC	4.3%
COc1ccc2c(c1)c(N1CCCC1=O)c(C(=O)Nc1cc(C)c(Cl)cc1OC)n2C	-13%
CCOc1ccc(CCNC(=O)c2ccc3c(c2)c(C)c(C)n3Cc2ccccc2)cc1OCC	?
COC(=O)c1ccc2c(c1)sc(=NC(=O)c1ccc(S(=O)(=O)N3CCCCC3)cc1)n2C	-2.1%
Cc1cccc(NC(=O)c2c(NC(=O)C(F)(F)F)sc3c2CCCCC3)c1	1.1%
Cc1ccc(S(=O)(=O)N2[C@H](CC(=O)c3ccc(Cl)c(Cl)c3)OC[C@@H]2C)cc1	-2.1%
COc1ccc(-c2noc(N(c3ccc(F)c(Cl)c3)c3nc(-c4ccc(OC)c(OC)c4)no3)n2)cc1OC	-3.6%

Next section, overlapping the part above by 5 compounds.
SMILES	ClpP mod
CCOc1ccc(CCNC(=O)c2ccc3c(c2)c(C)c(C)n3Cc2ccccc2)cc1OCC	?
COC(=O)c1ccc2c(c1)sc(=NC(=O)c1ccc(S(=O)(=O)N3CCCCC3)cc1)n2C	-2.1%
Cc1cccc(NC(=O)c2c(NC(=O)C(F)(F)F)sc3c2CCCCC3)c1	1.1%
Cc1ccc(S(=O)(=O)N2[C@H](CC(=O)c3ccc(Cl)c(Cl)c3)OC[C@@H]2C)cc1	-2.1%
COc1ccc(-c2noc(N(c3ccc(F)c(Cl)c3)c3nc(-c4ccc(OC)c(OC)c4)no3)n2)cc1OC	-3.6%
CCC(=O)N1CCc2cc(Br)cc(S(=O)(=O)CCC(=O)Nc3cccc(Cl)c3)c21	-1.9%
O=C(Nc1cccc(-c2nc3ccccc3o2)c1)c1ccc(-c2ccc(Br)cc2)o1	4µM*
Cc1ccc(NC(=O)c2cc(C)nc3c2c(C)nn3-c2cccc(Cl)c2C)c(C)c1	-4.5%
COc1ccc(NC(=O)c2sc3nc(C)c(C(=O)Nc4ccc(C)cc4C)c(-c4ccc(C)o4)c3c2N)cc1	0.2%
COc1cccc(OCc2nc3ccccc3n2CCOc2ccc(C)cc2)c1	-1.4%
Cc1ccc(C)c(Cn2c(=O)n(-c3ccccc3)c(=O)c3c4c(sc32)CCCC4)c1	-2.0%
COc1ccc(-n2ncc(C(=O)N3CCN(c4cc(C)ccc4C)CC3)c2C2CCN(C(=O)OC(C)(C)C)CC2)cc1	-0.8%
CCc1ccc(NC(=O)Cn2ccn(Cc3ccccc3OC)c(=O)c2=O)cc1	25%
COc1ccc(CCNC(=O)c2ccc3c(Cl)c4c(nc3c2)CCCC4)c(OC)c1	-7.4%
COc1cccc(NC(=O)CSc2nc3cc(OC)c(OC)cc3c3nc(-c4ccccc4)nn23)c1	-0.3%
Cc1nc(-c2ccccc2)sc1C(=O)NS(=O)(=O)c1ccc(CN2CCN(c3ccccc3)CC2)cc1	-9.8%
CN(C)c1cccc(C(=O)Nc2ccc(-c3nc4ccccc4s3)cc2)c1	3.5µM*
CCCNC(=O)c1ccccc1NC(=O)c1nsc2ccccc12	1.8%
CN(C)c1ccc(CN(Cc2ccco2)C(=O)c2ccc(F)cc2)cc1	1.4%
CCc1ccc(NC(=O)c2sc3nc(C)c(Cl)c(C)c3c2N)cc1	?
CCOC(=O)c1ccccc1NC(=O)c1cc2ccc3cccnc3c2[nH]1	3.6%
COc1cc(NC(=O)CSc2nnc3c4ccccc4n(C)c3n2)cc(OC)c1OC	0.2%
COC(=O)c1cn(CC(C)n2c(=O)c3ccccc3n2Cc2cc(C(C)C)no2)nn1 (centres undefined)	4.3%
Cc1ccc(NC(=O)C2CCC(CNS(=O)(=O)c3cccc4nsnc34)CC2)c(Cl)c1 (centres undefined)	94%
CCC(C)NC(=O)Cn1c(=O)n(-c2ccc(C)cc2)c(=O)c2ccccc21 (centres undefined)	-25%
COc1ccc(OC)c2c(/C=C/c3c(C)[nH]c4ccccc34)ccnc12	0.1%
CCCCn1nnnc1C(c1ccccc1)N1CCN(c2ncccn2)CC1 (centres undefined)	-8.0%
CN(CC(=O)O)c1ccc(C=O)cc1	-11%
COC(=O)[C@]12CCCCC=C1N(Cc1ccc3c(c1)OCO3)C(=O)[C@H](CC(=O)NCc1cccc3ccccc13)C2	-10.0%
CCn1c(CNC(=O)c2ccc(OC)cc2)nnc1SCC(=O)Nc1ccc(F)cc1	2.1%
COC(=O)c1nnn(CC(=O)Nc2c(C)cccc2C)c1N	-2.0%
Cc1cc(C)c2nc(C)cc(Nc3cccc(C(=O)O)c3)c2c1	-2.6%
Nc1[nH]c(C(=O)c2ccccc2)c(-c2ccccc2Cl)c1C(=O)c1ccccc1	3.9%
Cc1ccc(-n2c(=O)c3c(C)c(C)sc3n(CC(=O)NCc3ccccc3)c2=O)cc1C	0.9%
CN1CCN(C(=O)Nc2cccc(Cl)c2)c2cccnc21	3.9%
COc1cccc2cc(-c3nc4ccc(C)cc4[nH]3)c(=O)oc12	-2.8%
Cc1c(C(=O)NCCc2ccc(Cl)cc2)sc2nc3n(c(=O)c12)CCCC3	-8.4%
O=C(/C=C/c1ccccc1)Nc1nc2n(n1)C(c1ccc(Cl)cc1)C=C(c1ccccc1)N2 (centres undefined)	-0.6%
Cc1ccc(C(=O)NCCN2CCC(n3c(=O)[nH]c4ccccc43)CC2)cc1	-0.7%
Cc1cc(C)cc(NC(=O)c2cc3c(=O)n(Cc4ccco4)ccc3nc2C)c1	-1.9%
Cc1ccc(C)c(-n2nnc(-c3nc(-c4ccc(Cl)cc4)no3)c2N)c1	1.4%
COc1ccc(OCC(=O)OCc2cc(=O)n3cc(C)sc3n2)cc1	-10%
CCCCN(CCCN)c1ccc(Br)cn1	-22%
Cc1cc(C)cc(-n2ccnc2SCC(=O)Nc2nc3ccccc3s2)c1	-7.0%
CCC(=O)N1c2ccccc2CC1C(=O)NCc1ccccc1Cl (centres undefined)	-0.7%

Copied from the listing for reference:
SMILES	ClpP mod
Cc1ccc(C(=O)NCCN2CCC(n3c(=O)[nH]c4ccccc43)CC2)cc1	-0.7%
Cc1cc(C)cc(NC(=O)c2cc3c(=O)n(Cc4ccco4)ccc3nc2C)c1	-1.9%
Cc1ccc(C)c(-n2nnc(-c3nc(-c4ccc(Cl)cc4)no3)c2N)c1	1.4%
COc1ccc(OCC(=O)OCc2cc(=O)n3cc(C)sc3n2)cc1	-10%
CCCCN(CCCN)c1ccc(Br)cn1	-22%
Cc1cc(C)cc(-n2ccnc2SCC(=O)Nc2nc3ccccc3s2)c1	-7.0%
CCC(=O)N1c2ccccc2CC1C(=O)NCc1ccccc1Cl (centres undefined)	-0.7%

More results follow.
SMILES	ClpP mod
CCOc1ccc(N2CC(NC(=O)Cc3ccccc3)CC2=O)cc1 (centres undefined)	1.4%
CSc1ccc(CNC(=O)Cc2csc3ccccc23)cc1	-1.2%
CC1Cc2cc(S(=O)(=O)CCC(=O)Nc3ccccc3F)ccc2N1C(=O)C1CC1 (centres undefined)	-0.5%
CC(=O)N1CCCc2cc(S(=O)(=O)N3CCCC(C(=O)Nc4ccc(C)c(C)c4)C3)ccc21 (centres undefined)	-2.7%
Cc1cc2c(n1-c1ccc(C(=O)NCc3ccccc3Cl)cc1)CCCC2	-6.7%
Cc1ccc2c(c1)c1c3n2CCN(C(=O)c2cccc(C(F)(F)F)c2)C3CCC1 (centres undefined)	-3.0%
Cc1ccc(N2CC(NC(=O)C3CCCC3)CC2=O)cc1C (centres undefined)	0.6%
COc1ccc(CC(=O)Nc2nc3c(s2)CC(C)CC3)cc1 (centres undefined)	1.1%
CCN(CC)C(=O)Cn1c(=O)n(-c2ccc(C)c(C)c2)c(=O)c2c3c(sc21)CCCCC3	-1.6%
O=C(c1ccc2c(c1)N(Cc1cccc(Cl)c1)C(=O)c1ccccc1S2(=O)=O)N1CCCCC1	-1.6%
CCCCNC(=O)c1nc(-c2cc3ccccc3[nH]2)oc1-c1cccc(C(F)(F)F)c1	-8.5%
Cc1ccc(NC(=O)C2CCC(CNS(=O)(=O)c3ccc4c(c3)C(C)(C)C(=O)N4C)CC2)cc1 (centres undefined)	-1.1%
CCn1c2ccccc2c2cc(CN3CCN(Cc4ccc(OC)c(OC)c4)CC3)ccc21	?
CCc1ccc(-c2nn(CC(=O)NC3CCCCC3)c3c2cnc2ccc(C)cc23)cc1	-0.7%
Cc1ccc(Cl)cc1NC(=O)Cn1c(=O)oc2cc(S(=O)(=O)N3CCCCCC3)ccc21	-1.0%
CSc1ccc(CCNC(=O)C(C)n2nc(C)c3sc4ccccc4c3c2=O)cc1 (centres undefined)	-0.9%
CCc1nnc(NC(=O)C(=O)c2cc(C)n(-c3ccccc3)c2C)s1	-1.5%
Cc1ccc(NC(=O)c2c(C)oc3ccc(O)c(CN(C)Cc4ccccc4)c23)c(C)c1	-3.9%
COc1ccc(CCNS(=O)(=O)c2c(C)nc3sccn3c2=O)cc1OC	-2.8%
COc1ccc(NC(=O)c2ccco2)cc1NC(=O)c1cc(Br)ccc1Cl	-1.8%
Cc1ccc(NC(=O)C(=O)NCC(c2ccc3c(c2)OCO3)N2CCN(c3ccccc3)CC2)cc1 (centres undefined)	-0.3%
CCOC(=O)c1cnc2ccccc2c1Nc1ccc(N2CCOCC2)cc1	0.9%
COC(=O)c1ccccc1NC(=O)C1CCN(C(=O)N2CC(C)Oc3ccccc32)CC1 (centres undefined)	-12%
COc1cccc(C2=CC(c3ccccc3F)n3ncc(C(=O)Nc4ccc(C)cc4)c3N2)c1 (centres undefined)	-2.7%
CCOC(=O)[C@]12CCCC=C1N(CCC1=CCCCC1)C(=O)[C@H](CC(=O)NCC1CCCCC1)C2	-2.4%
Cc1oc2ncn(C)c(=O)c2c1C(=O)N1CCN(c2ccc(Cl)cc2)CC1	-2.1%
CCOc1ccc2nc(N(Cc3cccnc3)C(=O)c3ccco3)sc2c1	4.3%
COc1ccccc1CNC(=O)C1CCN(S(=O)(=O)c2ccc3[nH]c(=O)ccc3c2)CC1	-10%
COc1ccccc1CCn1cnc(-c2ccc(Br)cc2)c1C(C)C	-0.2%
COc1ccc(C2N3CC4(C)CN2CC(c2ccccc2)(C3)C4=O)cc1 (centres undefined)	0.3%
CCC1CCCCN1C(=O)Cn1c(=O)n(CCCCCC(=O)NCc2ccccc2Cl)c(=O)c2sccc21 (centres undefined)	-1.3%
CCN(CC)CCCNC(=O)C(C)n1nc(C)n2c(cc3occc32)c1=O (centres undefined)	-6.0%
COc1ccc(-c2ccc(CNc3ccc4[nH]c(=O)[nH]c4c3)o2)cc1Cl	-14%
CCn1c(SCC(=O)NCc2ccco2)nnc1-c1ccc(N(C)C)cc1	-7.3%
CC(C)C[C@@H](CN1CCC[C@@H]1CN1C(=O)C(=O)NC[C@@H]1Cc1ccccc1)N1C[C@H](Cc2ccccc2)N(CC2CCCCC2)C(=O)C1=O	-0.1%
CCOc1ccc(NC(=O)CCNS(=O)(=O)c2ccc3c(c2)CCCC(=O)N3)cc1	-0.5%
CCCCOc1cccc(C(=O)Nc2sc3c(c2C(=O)OCC)CCCC3)c1	-4.6%
Cc1ccc(OCCSc2nc3ccccc3n2CC(=O)N2CCOCC2)c(C)c1	-0.2%
O=C(c1cccc(Cl)c1)N(Cc1cccc(F)c1)C1CCS(=O)(=O)C1 (centres undefined)	0.3%
Cc1ccc(OCC(=O)Nc2ccccc2C(=O)OCc2cc(=O)n3nc(C4CC4)sc3n2)cc1	-4.6%
CCOc1ccc(-n2c(SCC(=O)N3CCOCC3)nc3c([nH]c4ccccc43)c2=O)cc1	-5.6%
CCn1ccc2cc(S(=O)(=O)N3CCC(C(=O)NCc4cccc(Cl)c4)CC3)ccc21	-13%
Cc1cc(C)cc(-n2cnc3cc(C(=O)NCCc4ccccc4)ccc32)c1	-9.5%
CCOc1ccc(CCNC(=O)Cc2ccc(NC(=O)N3CCSc4ncccc43)cc2)cc1	-13%
CC(C)c1ccc(NC(=O)c2cccc3c2C(=O)N(C2CCCCC2)C3)cc1	0.4%
CC1CCN(S(=O)(=O)c2cc(C(=O)N3CCN(c4cccc(Cl)c4)CC3)n(C)c2)CC1	-2.9%
